Screening results (PubChem BioAssay)
CBX7 AlphaScr = CBX7 chromodomain binding inhibitors, primary screen, biochemical, AlphaScreen. hit rate 1.1% among 66,000. normalised signal (fraction of DMSO) (test concentration not listed). AlphaScreen His6-CBX7 / biotin-H3K27me3 peptide binding; stronger effect = lower value; in the data active = normalised signal below about 0.5;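 also: 100 nL library stock added to about 20 µL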
Target sequence (O95931 whole entry, looked up): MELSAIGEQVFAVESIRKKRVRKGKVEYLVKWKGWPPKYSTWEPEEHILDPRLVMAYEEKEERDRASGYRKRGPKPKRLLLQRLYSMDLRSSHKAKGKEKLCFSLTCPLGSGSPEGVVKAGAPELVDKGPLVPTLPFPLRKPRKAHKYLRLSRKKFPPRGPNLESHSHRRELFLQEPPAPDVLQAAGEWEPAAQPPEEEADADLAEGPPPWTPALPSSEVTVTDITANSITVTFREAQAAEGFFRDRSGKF
CBX7 AlphaScr z-score = second read-out of CBX7 AlphaScr, no call of its own (marks repeat the call); z-score; measured here: z-score of CBX7 signal; some inactives read as strong as hits; reference of the scale not given here;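 same signal on another scale; lower means less binding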
* = called active by the depositor; & = joins results of further samples.

canonical_smiles | CBX7 AlphaScr | CBX7 AlphaScr z-score
CC1(C(=O)NC2CCCC2)CCC(=O)N1Cc1ccccc1Cl (stereo not given) | 0.87 | -2.1
Cc1ccc(-c2cn(-c3ccc(C)cc3)c(S(=O)(=O)CC(=O)Nc3ccccc3C)n2)cc1 | 0.67 | -3.4
COc1ccc(C(=O)Cn2cnc3c(C#N)c4n(c3c2=O)CCCCC4)cc1 | 0.89 | -1.2
CCCCOCC(O)Cn1c(CO)nc2ccccc21 (stereo not given) | 1 | 0.083
COc1ccc(C2C(=O)N(C3CCC(C)CC3)CC(=O)N2Cc2ccc(C)cc2)cc1OC (stereo not given) | 0.75 | -0.7
COc1ccc(C2CC(=O)N(CC(=O)Nc3cccc(F)c3)c3ccccc3S2)cc1OC (stereo not given) | 0.81 | -2.7
Clc1ccc(OCCCn2c(COc3ccccc3)nc3ccccc32)cc1 | 0.88 | -1.3
CCOc1ccc(CCNC(=O)CN2C(=O)COc3ccc(S(=O)(=O)N(CC)CC)cc32)cc1 | 1 | 2.1
CCCSc1oc(-c2ccc(F)cc2)nc1S(=O)(=O)c1ccc(C)cc1 | 1 | 0.08
CC(Oc1ccc(Br)cc1)n1cncn1 (stereo not given) | 1 | 0.36
O=C(CCC1CC(=O)Nc2ccccc21)NCc1ccccc1Cl (stereo not given) | 1.5 | 1
CC1CC(C)CN(CCCNC(=O)Cc2c(C(=O)O)[nH]c3ccc(Cl)cc23)C1 (stereo not given) | 0.97 | -0.87
COc1ccc(Nc2nc(-c3sc(NC(C)=O)nc3C)cs2)cc1 | 0.74 | -6.5
COc1ccc2c(c1)c(=O)c(S(=O)(=O)c1ccc(C)cc1)cn2Cc1ccc(C)cc1 | 0.89 | -4.3
COc1ccc(NS(=O)(=O)c2ccc3c(c2)n(C)c(=O)c(=O)n3C)cc1 | 0.85 | -2.4
CCn1c(C(=O)Nc2nc3ccc(OC)cc3s2)cc2sc(Cl)cc21 | 0.88 | -2
CCOc1ccc2nc(N3CCC(C(=O)NCC4CCCO4)CC3)sc2c1 (stereo not given) | 1 | -0.011
Cc1ccc(N2CCN(C(=O)Cc3c(C(=O)O)[nH]c4ccccc34)CC2C)cc1 (stereo not given) | 0.99 | -0.18
Cc1cccc(NC(=O)C2CCN(S(=O)(=O)c3cnc[nH]3)CC2)n1 | 1.1 | 0.85
CCOc1ccccc1NC(=O)CCCN1C(=O)c2cccnc2C1=O | 1.1 | 0.19
CC(C)OCCCNC(=O)c1ccc2c(c1)N(Cc1cccc(F)c1)C(=O)c1ccccc1S2 | 0.98 | -0.59
COc1ccc2c(c1)CCc1sc(NC(C)=O)nc1-2 | 0.99 | -0.15
COc1ccc(OC)c(Nc2nc(-c3cccs3)cs2)c1 | 0.84 | -2.1
COC(=O)CN1C(=O)C2CCCN2c2ncc(Cl)cc21 (stereo not given) | 0.99 | -0.23
CCN1CCN(CCCNC(=O)c2ccc3c(c2)NC(=O)C(CC(C)C)N3)CC1 (stereo not given) | 1.1 | 0.094
CCOc1cc2sc(N3CCC(C(=O)Nc4ccc(F)cc4F)CC3)nc2cc1Br | 1.2 | 1.2
Cc1c(C(=O)NCc2cccnc2)sc2nc(-c3ccccc3)cn12 | 0.9 | -1.9
CCOc1ccc(-c2nc(SCC(=O)Nc3nccs3)c(-c3ccc(F)cc3)[nH]2)cc1 | 1 | 0.15
O=C(O)C1CCCN1S(=O)(=O)c1cccc2cccnc12 (stereo not given) | 0.84 | -2.2
COc1ccc2c(c1)CCc1c(C(=O)Nc3ccc4c(c3)OCO4)noc1-2 | 1.1 | 1.6
Cc1c(C(=O)NC(C)CCc2ccccc2)oc2ccc(S(=O)(=O)N3CCOCC3)cc12 (stereo not given) | 0.76 | -1.1
COc1ccc(-n2cc(C(=O)Nc3nc4c(C)cccc4s3)c3ccccc3c2=O)cc1 | 0.9 | -3.5

Whole records, looked up by structure. Screens in order: CBX7 AlphaScr, CBX7 AlphaScr z-score
CC(C)OCCCNC(=O)c1ccc2c(c1)N(Cc1cccc(F)c1)C(=O)c1ccccc1S2 is entered as 0.98, -0.59
COc1ccc(NS(=O)(=O)c2ccc3c(c2)n(C)c(=O)c(=O)n3C)cc1 is entered as 0.85, -2.4
COc1ccc(Nc2nc(-c3sc(NC(C)=O)nc3C)cs2)cc1 is entered as 0.74, -6.5
COc1ccc2c(c1)c(=O)c(S(=O)(=O)c1ccc(C)cc1)cn2Cc1ccc(C)cc1 is entered as 0.89, -4.3
CC(Oc1ccc(Br)cc1)n1cncn1 (stereo not given) is entered as 1, 0.36

The list continues:
canonical_smiles | CBX7 AlphaScr | CBX7 AlphaScr z-score
Cc1ccc2c(c1)C1CN(C)CCC1N2C(=O)CCCN1C(=O)c2ccccc2C1=O (stereo not given) | 1 | 0.39
CCOc1ccc(-c2cc(C(=O)NCc3ccccn3)c3ccccc3n2)cc1 | 0.67 | -9
Fc1ccccc1CSc1nc2ncc(Br)cc2[nH]1 | 1.1 | 0.058
Cc1cccc(-c2nnc(SCC(=O)N3CC(C)CC(C)C3)o2)c1 (stereo not given) | 1.2 | 3.6
CC(C)(C)C1CCc2nc3ccccc3c(C(=O)O)c2C1 (stereo not given) | 1.1 | 1.1
O=C(O)c1ccc(-c2nnc(-c3ccccc3)o2)cc1 | 1 | 0.49
CCN1CCN(CCCNC(=O)CS(=O)(=O)Cc2nc(-c3ccccc3C)oc2C)CC1 | 0.97 | -0.7
N#CCc1ccc(NC(=O)CN2C(=O)c3ccccc3S2(=O)=O)cc1 | 1 | 1.4
Cc1ccc(NC(=O)CCc2nnc3ccc(NC4CCCC4)nn23)cc1 | 1 | 0.29
Cc1cccc(Cn2c(SCc3cccc(F)c3)nc3ccncc32)c1 | 0.87 | -1.4
O=C(NCCCN1CCOCC1)C1C2C=CC3(CN(Cc4ccccc4Cl)C(=O)C13)O2 (stereo not given) | 1 | 1.8
COc1ccc(C2CC(=O)C3=C(C2)Nc2ccccc2NC3c2cccc(Cl)c2Cl)cc1 (stereo not given) | 1.1 | 0.43
CCCOc1ccc(C2C(=O)N(C3CCCCCC3)CC(=O)N2C2CC2)cc1OC (stereo not given) | 1.4 | 1.4
COC(=O)CCC(=O)Nc1nc(-c2ccccc2)cs1 | 1.1 | 0.095
COc1ccc(NC(=O)c2ccc3c(c2)C(=O)N(c2nccs2)C3=O)cc1 | 0.84&1 | -2.5&0.84
c1ccc(CN2CCC(NCCc3ccc4c(c3)OCO4)CC2)cc1 | 0.48* | -1.4*
CCOC(=O)c1cnc2c(C)cc(Cl)cc2c1Nc1ccc(N(C)C)cc1 | 0.83 | -0.76
Cc1cc(C)c2nc(N3CCC(C(=O)N4CCOCC4)CC3)sc2c1 | 1.2 | 3.3
COc1ccc2[nH]c(C)c(CCNS(=O)(=O)c3ccc(C4CCCCC4)cc3)c2c1 | 0.56 | -0.44
COc1ccc(-c2noc(COc3ccccc3)n2)cc1OC | 1.2 | 3.5
CCOC(=O)c1cc(-c2ccccc2)n(CCC(=O)Nc2cc(C)ccc2C)c1C | 0.95 | -0.53
COc1ccc(-c2[nH]c(-c3ccc(C)cc3)nc2SCC(=O)Nc2ccc(OC)c(OC)c2)cc1 | 1 | 2
COc1nonc1-n1nnc(C(C)=O)c1C | 0.99 | -0.13
CC(=O)Nc1ccccc1C(=O)C(=O)Nc1cccc(C(=O)NCCc2ccc(Cl)cc2)c1 | 0.88 | -1.3
O=c1cc(Cc2nnc(SCc3ccc(Cl)cc3)n2-c2ccccc2)[nH]c(=O)[nH]1 | 1 | 1.4
COc1ccc(Cl)cc1NC(=O)CCNS(=O)(=O)c1ccc2c(c1)CCC(=O)N2 | 1 | 0.52
COc1ccc(CN2C(=O)c3c(c(C)n(C)c3C)C2C(=O)NC2CCC(C)CC2)cc1 (stereo not given) | 1 | 0.98
Cc1ccc2c(c1)N(C(C)C(=O)NCc1ccc3c(c1)OCO3)C(=O)CO2 (stereo not given) | 0.95 | -0.63
Cn1c(=O)cc(OCCCC(=O)NCc2cccnc2)c2ccccc21 | 0.92 | -1.2
O=C1CC(c2ccccc2OCc2ccccc2)C2=C(CCCC2=O)N1 (stereo not given) | 1.1 | 0.88
CC(NC(=O)c1ccc(Cl)cc1)c1nc2ccccc2[nH]1 (stereo not given) | 1.1 | 1.3
C/C(=C/c1ccccc1)c1nc(Cc2c(F)cccc2Cl)no1 | 1.1 | 0.094
Cc1ccc(-n2nc(C)c3c(C)c(CCC(=O)O)c(C)nc32)cc1 | 1.1 | 1.6
Cc1ccc(NC(=O)C(CC(C)C)NS(=O)(=O)c2ccc3nc(C)sc3c2)c(Cl)c1 (stereo not given) | 1 | 0.15
O=C(O)C1Cc2c([nH]c3ccccc23)C(c2ccc(OC(F)F)cc2)N1 (stereo not given) | 0.96 | -1
CCOc1ccccc1-c1nc(-c2nonc2N)no1 | 1 | 0.83
COc1ccccc1Cc1noc(COc2cccc3ccccc23)n1 | 1.3 | 4.4
COc1cccc(-c2cc(C(=O)NCc3ccccc3)no2)c1 | 0.94 | -0.71
Oc1ccccc1-c1nc(Nc2ccccc2Cl)c2ccccc2n1 | 1 | 0.029
CC(C)(C)c1cc(Sc2nnc(-c3ccc(C(=O)N4CCOCC4)cc3)c3ccccc23)cc(C(C)(C)C)c1O | 0.71 | -6.6

Four of the compounds above, as labelled records:
Cc1ccc(-n2nc(C)c3c(C)c(CCC(=O)O)c(C)nc32)cc1
- CBX7 AlphaScr: 1.1
- CBX7 AlphaScr z-score: 1.6
Cc1ccc(NC(=O)C(CC(C)C)NS(=O)(=O)c2ccc3nc(C)sc3c2)c(Cl)c1 (stereo not given)
- CBX7 AlphaScr: 1
- CBX7 AlphaScr z-score: 0.15
O=C(O)C1Cc2c([nH]c3ccccc23)C(c2ccc(OC(F)F)cc2)N1 (stereo not given)
- CBX7 AlphaScr: 0.96
- CBX7 AlphaScr z-score: -1
CCOc1ccccc1-c1nc(-c2nonc2N)no1
- CBX7 AlphaScr: 1
- CBX7 AlphaScr z-score: 0.83

Further records follow.
Below each SMILES – CBX7 AlphaScr | CBX7 AlphaScr z-score
Cc1ccc(NC(=O)Cn2cnc3sc(C(=O)N4CCOCC4)c(C)c3c2=O)cc1Cl
  0.88 | -0.41
CC1CCN(c2c(NCc3ccc(C(=O)NCCc4ccccc4)cc3)c(=O)c2=O)CC1
  1 | 0.86
Cc1ccc(NC(=O)Cn2cnc3sc(C)c(C)c3c2=O)cc1Cl
  0.99 | -0.4
COc1ccccc1-c1c(C)nn2c(C)cc(C)nc12
  0.87 | -0.57
O=C(NC(c1ccccc1)c1ccccc1)C1CCCc2c1[nH]c1ccc(Cl)cc21 (stereo not given)
  0.83 | -6.5
Cc1c(C(=O)NCCc2ccccc2)oc2ccc(S(=O)(=O)N3CCC(C)CC3)cc12
  1.1 | 2.5
CCC(C)Sc1oc(-c2ccc(F)cc2)nc1S(=O)(=O)c1ccc(F)cc1 (stereo not given)
  0.98 | -0.18
CCc1cccc(N(CC)C(=O)Cc2c(C(=O)O)[nH]c3ccc(Cl)cc23)c1
  1.1 | 0.95
CC(=O)NCC(=O)N(C)C(C(=O)Nc1ccc2c(c1)OCO2)c1ccccc1 (stereo not given)
  1.2 | 2.1
CCOC(=O)c1cnc2c(C)cc(C)cc2c1Nc1ccc(Cl)cc1
  1.2 | 2.3
Cc1ccc(C)c(CN2C(=O)c3ccccc3S(=O)(=O)c3ccc(C(=O)N4CCCC4)cc32)c1
  1.1 | 2.1
O=C(NCc1ccccc1Cl)c1ccc2c(c1)N(Cc1ccccc1)CCS2
  0.91 | -0.12
CCc1ccc(CN2C(=O)c3ccccc3C2C(=O)NCc2cccnc2)cc1 (stereo not given)
  1 | 1
Cc1oc(-c2ccc(Cl)cc2)nc1CSCC(=O)N1CCCC1
  1.1 | 0.53
Cc1ccc(C(=O)NCCc2nc3ccccc3[nH]2)cc1
  1.2 | 0.68
O=C(CSc1nnnn1-c1ccc(Cl)cc1)Nc1ccccc1C(F)(F)F
  1 | 0.086
O=C(c1cc2n(n1)C(C(F)(F)F)CC(c1ccc(Cl)cc1)N2)N1CCN(c2ccccc2)CC1 (stereo not given)
  1.2 | 3.7
Cc1ccc(-c2cc(C(=O)NCc3ccccc3)c3ccccc3n2)cc1C
  1 | 0.28
CN(CCNC(=O)c1csc2c1CCCC2)C1CCCCC1
  0.99 | -0.23
COCCCNC(=O)CCc1nc(-c2ccc(OC)cc2)no1
  1.1 | 1.6
Cc1ccc(NC(=O)C2CCCN(S(=O)(=O)c3cccs3)C2)cc1C (stereo not given)
  1.1 | 1.5
O=S(=O)(Nc1ccc(O)c(-c2nc3ccccc3s2)c1)c1ccccc1
  1 | 0.19
Cc1cc(C(=O)NCCCN2CC(C)CC(C)C2)n(-c2ccccc2)n1 (stereo not given)
  1 | 0.82
CCC1=Nc2cc(C(=O)NC(C)CC)ccc2Sc2ccc(Cl)cc21 (stereo not given)
  0.94 | -0.85
CC(C(=O)NCc1ccc(F)cc1)C1Sc2ccccc2N(Cc2ccc(F)cc2)C1=O (stereo not given)
  1 | 0.1
CCN1C(=O)C(C(=O)Nc2ccc(OC)cc2)C2c3ccccc3OC13CCCCC23 (stereo not given)
  0.93 | -1.4
Nc1nc(SCC(=O)c2ccccc2)nc2sc3c(c12)CCN(Cc1ccccc1)C3
  0.89 | -1.9
Cc1ccc(S(=O)(=O)c2nc(-c3cccs3)oc2SC(C)C)cc1
  1 | 0.08
COc1ccc(C(=O)c2cn(Cc3ccc(C)cc3)c3ccccc3c2=O)cc1
  0.54 | -1.6
CCOc1ccccc1C(=O)NCCc1cc2cc(C)c(C)cc2[nH]c1=O
  0.96 | -2
Cc1ccc(C)c(N2CCN(C(=O)C3CCCN(S(=O)(=O)c4cccnc4)C3)CC2)c1 (stereo not given)
  0.96 | -0.04
COCCCNC(=O)c1ccc2c(c1)N=C(C)c1c(C)ccc(C)c1S2
  0.91 | -1.4
CC(C)OCCCNC(=O)CCc1nc(-c2ccccc2F)no1
  1 | -0.029
COc1cc2c(=O)c(S(=O)(=O)c3ccccc3)cn(Cc3ccccc3F)c2cc1OC
  0.94 | -1.2
CCOc1ccc(CCNC(=O)Cn2c3c(c(-c4ccccc4Cl)cc2=O)CCC3)cc1OCC
  0.58 | -5.8
CCOc1ccc2nnc(-c3ccc(Br)cc3)n2n1
  1 | 1.2

Only part of the results is shown. The share of hits here may be higher or lower than overall.
